High-throughput results as filed in PubChem BioAssay.
RE007 growth inh: less growth of the S. pombe RE007 Vpr strain. S. pombe RE007 Vpr strain, BacTiter-Glo ATP luminescence, 24 h; control for the full effect not named in the record. 0.21% of 360,000 active. Potency, µM (series often up to 92.2 µM), for the others: top-dose activity change, negative = less growth. AID 651644; active = well fitted falling curve with a large enough effect; inconclusive = small, poorly fitted or top-dose-only effect; inactive = no such curve, though single readings can be large or run the other way;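 further: on the % scale 0 is the no-effect control and ±100 the full control effect; nearly all actives have a fitted effect of over 50% in size; the assay follows cell death caused by Vpr and the record does not say whether a fall means rescue or toxicity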
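Fission yeast strain RE007, carrying one chromosomally integrated HIV-1 vpr copy, was seeded at OD 0.01 in PMG+AL medium with 23 nL pinned compound. After 24 h at 30 °C and 99% humidity, viability was read by BacTiter-Glo luminescence.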
StopGo reporter: FMDV 2A StopGo reporter, luciferase signal; Potency, µM (top dose mostly 57.9 µM), for the others: top-dose signal change, negative = less light; human cells with a luciferase reporter of 2A StopGo recoding; control for the full effect not named in the record; 1.2% of 410,000 active; active = well fitted falling curve with a large enough effect; inconclusive = small, poorly fitted or top-dose-only effect; inactive = no such curve, though single readings can be large or run the other way; tested in HEK293T cells; further: on the % scale 0 is the no-effect control and ±100 the full control effect; nearly all actives have a fitted effect of over 45% in size; luciferase light after 4 h
Cruzain Triton: inhibitors of Trypanosoma cruzi cruzain with detergent | purified cruzain, Z-FR-AMC fluorescence, 0.01% Triton | Potency, µM, inactives show max response, negative = inhibition, actives largely listed as inhibitors | 0.43% of 200,000 active;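 further: plate controls were neutral wells for no effect and buffer without enzyme for full effect; nearly all actives have a fitted effect of over 40% in size; top concentration of the series not given in the record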
Target sequence (P25779 123-467 limits assumed): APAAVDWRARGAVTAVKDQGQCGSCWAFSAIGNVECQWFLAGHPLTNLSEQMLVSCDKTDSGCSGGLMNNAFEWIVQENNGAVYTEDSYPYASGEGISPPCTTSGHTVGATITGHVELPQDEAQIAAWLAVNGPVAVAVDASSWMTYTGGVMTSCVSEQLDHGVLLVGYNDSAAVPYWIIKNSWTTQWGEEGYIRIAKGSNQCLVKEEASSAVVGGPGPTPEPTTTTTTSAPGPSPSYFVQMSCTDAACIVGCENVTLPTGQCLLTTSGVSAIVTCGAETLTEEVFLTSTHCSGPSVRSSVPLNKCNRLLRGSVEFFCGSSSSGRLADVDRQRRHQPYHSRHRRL
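15 min RT preincubation of 1.5 nM cruzain with compound, then 2 uM Z-FR-AMC added; kinetic AMC fluorescence, 60 s delta. Triton X-100 0.01%, pH 5.5.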
Cruzain inh noDet: blocks cruzain activity in detergent-free assay; P25779; purified cruzain, Z-FR-AMC fluorescence, no detergent; Potency, µM, for inactives: max response, negative = inhibition, hits mostly inhibitors; 2.3% of 200,000 active;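 further: plate controls were enzyme without inhibitor for no effect and buffer without enzyme for full effect; nearly all actives have a fitted effect of over 40% in size; top concentration of the series not given in the record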
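Purified cruzain at 1.5 nM, pre-incubated 15 min with compound at room temperature in 100 mM sodium acetate pH 5.5, 5 mM DTT, 0.00005% Triton X-100. Reaction started with 2 uM Z-FR-AMC; AMC fluorescence increase over 60 s gives rate.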
Lassa entry inh: blocks Lassa virus binding to or entry into cells | Lassa virus pseudotype entry inhibition, cell reporter; control for the full effect not named in the record | Potency, µM (series often up to 37.9 µM), without a hit: top-dose activity change, negative = inhibition, actives largely listed as inhibitors | 1.2% of 300,000 active | AID 540256; active means well fitted inhibition curve with a large enough effect; inconclusive means small, poorly fitted or top-dose-only effect, or effect the other way; inactive means flat fitted curve, though single readings scatter; tested in HEK293 cells; further: on the % scale 0 is the no-effect control and ±100 the full control effect; nearly all actives have a fitted effect of over 50% in size; luciferase read-out
Marburg entry inh: blocks Marburg virus binding to or entry into cells; Marburg virus pseudotyped entry inhibition, cell reporter; control for the full effect not named in the record; about a third of the inactives were read at about 46 µM; Potency, µM (doses to about 37.8 µM), without a hit: at the highest dose activity change, negative = inhibition, hits mostly inhibitors; 1.8% of 300,000 active; AID 540276; active = well fitted inhibition curve with a large enough effect; inconclusive = small, poorly fitted or top-dose-only effect, or effect the other way; inactive = flat fitted curve, though single readings scatter; tested in HEK293 cells; about a fifth of its hits are not listed in these tables; further: on the % scale 0 is the no-effect control and ±100 the full control effect; luciferase read-out
NS1 function inh: influenza NS1 inhibition; Potency, µM (doses to about 46.1 µM), for the others: at the highest dose activity, positive = more growth; AID 2326; 0.4% of 270,000 active; S. cerevisiae slowed by influenza A NS1, growth recovery by OD600; active means well fitted rising curve with a large enough effect; inconclusive means small, poorly fitted or top-dose-only effect; inactive means no such curve, though single readings can be large or run the other way; further: nearly all actives have a fitted effect of over 50% in size
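S. cerevisiae expressing influenza A NS1, grown in glucose, washed, then diluted 1:100 into pH 6.0 -URA galactose medium with 23 nl compound. Growth recovery read as OD600; NS1-free strain serves as control.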
SARS PLpro yeast: SARS-CoV PLP inhibition in yeast. S. cerevisiae expressing SARS-CoV PLpro, growth rescue; control for the full effect not named in the record. Potency, µM (top dose mostly 32.9 µM), for inactives: at the top dose activity, positive = growth rescue. 0.19% of 330,000 active; active means well fitted rising curve with a large enough effect; inconclusive means small, poorly fitted or top-dose-only effect; inactive means no such curve, though single readings can be large or run the other way; further: 0% is about no effect; nearly all actives have a fitted effect of over 55% in size; growth read by luminescence after 48 h
* = called active by the depositor; [ ] = another dose, or the depositor's remark. Unless noted, the call rests on the fitted dose curve; in most records, active means well fitted curve in the direction sought with a large enough effect; inconclusive means small, poorly fitted or top-dose-only effect, or another doubt; inactive means no such curve, though single readings can be large; an effect the other way counts as inactive or inconclusive. Potency means the concentration at half of the fitted maximal effect. An unsorted share of the library. Share with any hit: about 4.6%.

How did COC(=O)[C@@]1(Cc2ccc(F)cc2)[C@H]2c3cc(C(=O)N4CCCC4)n(Cc4ccc(C)o4)c3C[C@H]2CN1C(=O)c1ccccc1 do in these assays?
RE007 growth inh: -27.5%; StopGo reporter: inconclusive; Cruzain Triton: -8.5%; Cruzain inh noDet: inconclusive

How did O=C(CSc1ncn[nH]1)N1N=C2/C(=C/c3ccco3)CCCC2C1c1ccco1 (stereo not given) do in these assays?
RE007 growth inh: 19.4%; StopGo reporter: -21.1%; Cruzain Triton: -10.8%; Cruzain inh noDet: -4.2%; Lassa entry inh: -1.8%; Marburg entry inh: -21.3%; NS1 function inh: 2.1%; SARS PLpro yeast: -11.1%

How did CCCSc1nc(C)cc(=O)[nH]1 do in these assays?
RE007 growth inh: 31.3%; StopGo reporter: -2.6%; Cruzain Triton: 3.9%; Cruzain inh noDet: -5.4%; Lassa entry inh: 23.3%; Marburg entry inh: -9.6%; NS1 function inh: -3.0%; SARS PLpro yeast: 1.6%

Results for O=C(Nc1cccnc1)c1ccc(N2CCCC2)c([N+](=O)[O-])c1 ?
RE007 growth inh: -16.7%; StopGo reporter: 44.5%[activator]; Lassa entry inh: 12.0%; Marburg entry inh: 22.1%[46.1 µM]; NS1 function inh: 1.1%; SARS PLpro yeast: 0.7%

How did Cc1oc(-c2ccccc2Cl)nc1CN(C)C(C)c1ccon1 (stereo not given) do in these assays?
RE007 growth inh: 28.3%; StopGo reporter: -5.3%; Lassa entry inh: 6.2%; Marburg entry inh: 3.8%[46.1 µM]; NS1 function inh: 0.9%; SARS PLpro yeast: -0.8%

What do the screens show for `COc1cc2c(C(=O)NCc3ccccn3)cn(CC(C)C)c(=O)c2cc1OC`?
RE007 growth inh: 20.5%; StopGo reporter: -13.2%; Cruzain Triton: -1.3%; Cruzain inh noDet: -6.9%; Lassa entry inh: 4.4%; Marburg entry inh: -10.7%; NS1 function inh: inconclusive; SARS PLpro yeast: -0.4%

What do the screens show for `CCN(CC(=O)NCc1cccs1)C(=O)CCc1c[nH]c2ccccc12`?
RE007 growth inh: 19.1%; StopGo reporter: -12.4%; Lassa entry inh: inconclusive; Marburg entry inh: -18.5%[46.1 µM]; SARS PLpro yeast: -2.5%

What do the screens show for `COc1cc(/C=C2\SC(=S)N(NS(=O)(=O)c3ccccc3)C2=O)cc(OC)c1OC`?
RE007 growth inh: 12.9%; StopGo reporter: -24.5%; Lassa entry inh: 1.0%; Marburg entry inh: -0.2%[46.1 µM]; NS1 function inh: 3.6%; SARS PLpro yeast: 1.0%

How did Cc1ccc(N2C(=O)CC(Sc3ccccc3C(=O)O)C2=O)c([N+](=O)[O-])c1 (stereo not given) do in these assays?
RE007 growth inh: inconclusive; StopGo reporter: -7.0%; Lassa entry inh: 10.8%[46.1 µM]; Marburg entry inh: 29.3%[46.1 µM]; NS1 function inh: -56.7%; SARS PLpro yeast: -5.0%

How did CCc1ccc(Nc2ccc(C(N)=O)cc2[N+](=O)[O-])cc1 do in these assays?
RE007 growth inh: 1.8%; StopGo reporter: -8.5%; Cruzain Triton: -8.7%; Cruzain inh noDet: -20.9%; Lassa entry inh: 0.0%; Marburg entry inh: -12.1%; NS1 function inh: -23.4%; SARS PLpro yeast: -12.7%

How did Cc1cc(OCC(=O)N(C)C)c2c(-c3ccccc3)cc(=O)oc2c1 do in these assays?
RE007 growth inh: -2.9%; StopGo reporter: 0.0%; Cruzain Triton: -0.3%; Cruzain inh noDet: -5.6%; Marburg entry inh: -5.5%; NS1 function inh: -3.9%; SARS PLpro yeast: 7.5%

What do the screens show for `Cn1c(COc2ccc(C(=O)O)cc2)nc2ccccc21`?
RE007 growth inh: -0.3%; StopGo reporter: 1.9%; NS1 function inh: 1.8%; SARS PLpro yeast: 0.1%

Results for O=C1c2ccccc2NC(c2ccc(O)cc2)N1/N=C/c1ccc(O)cc1 (stereo not given) ?
RE007 growth inh: 6.8%; StopGo reporter: 14.3%; Cruzain Triton: -7.3%; Cruzain inh noDet: 9.7%; Lassa entry inh: inconclusive; Marburg entry inh: inconclusive; NS1 function inh: 19.5%; SARS PLpro yeast: -4.0%

Results for CCOc1ccc(S(=O)(=O)NCc2ccccn2)cc1NC(=O)c1ccccc1 ?
RE007 growth inh: 5.6%; StopGo reporter: 27.9%; Lassa entry inh: inconclusive; Marburg entry inh: -18.8%[46.1 µM]; SARS PLpro yeast: -7.8%

How did CCc1ccc(-c2nc(CCl)cs2)cc1 do in these assays?
RE007 growth inh: -23.7%; StopGo reporter: -30.9%; Cruzain Triton: -4.6%; Cruzain inh noDet: -5.1%; Lassa entry inh: -29.6%; Marburg entry inh: -0.1%; NS1 function inh: -0.4%; SARS PLpro yeast: 19.7%

How did O=C(COC(=O)c1cc(S(=O)(=O)N2CCCCC2)ccc1N1CCOCC1)NC1CCS(=O)(=O)C1 (stereo not given) do in these assays?
RE007 growth inh: -9.5%; StopGo reporter: 0.7%; Marburg entry inh: -2.0%[46.1 µM]; SARS PLpro yeast: 0.6%

Results for CC1CCCCN1CCCNC(=O)C1CCCN(c2ncnc3c2nc2n3CCCCC2)C1 (stereo not given) ?
RE007 growth inh: 3.9%; StopGo reporter: -9.0%; Lassa entry inh: 5.2%[46.1 µM]; Marburg entry inh: inconclusive; NS1 function inh: -1.5%; SARS PLpro yeast: -0.7%

What do the screens show for `Cc1ccsc1C(=O)Nc1nccs1`?
RE007 growth inh: 4.5%; StopGo reporter: 0.0%; Lassa entry inh: inconclusive; Marburg entry inh: 13.1%[46.1 µM]; NS1 function inh: -0.9%; SARS PLpro yeast: -7.6%

What do the screens show for `CCN(CC)S(=O)(=O)c1cccc(C(=O)OCc2cc(=O)n3nc(C)sc3n2)c1`?
RE007 growth inh: -3.3%; StopGo reporter: inconclusive; Cruzain Triton: -0.2%; Cruzain inh noDet: 11.2%; Lassa entry inh: 9.9%; Marburg entry inh: 6.9%; NS1 function inh: -1.1%; SARS PLpro yeast: 3.1%

Results for C/C(=N\Nc1ccc(C)c(Cl)c1)c1ccncc1 ?
RE007 growth inh: -26.2%; StopGo reporter: 20.8%; Lassa entry inh: inconclusive; Marburg entry inh: inconclusive; NS1 function inh: -72.9%; SARS PLpro yeast: -35.4%

Results for COc1ccc(C(=O)NC(C)C2CC3CCC2C3)cc1 (stereo not given) ?
RE007 growth inh: 14.0%; StopGo reporter: 23.3%; Lassa entry inh: inconclusive; Marburg entry inh: inconclusive; NS1 function inh: 3.9%; SARS PLpro yeast: 1.9%

How did O=C(N/N=C/c1ccncc1)c1cccc(NC(=O)c2ccccc2Cl)c1 do in these assays?
RE007 growth inh: inconclusive; StopGo reporter: -14.2%; Cruzain Triton: -0.8%; Cruzain inh noDet: -1.3%; Lassa entry inh: 4.6%; Marburg entry inh: -0.5%; NS1 function inh: 6.3%; SARS PLpro yeast: 14.2%

What do the screens show for `Cn1c(=O)c2[nH]c(SCCN)nc2n(C)c1=S`?
RE007 growth inh: 2.4%; StopGo reporter: 0.0%; Lassa entry inh: 8.2%; Marburg entry inh: 23.8%

How did Cc1ccc(O)c(NC(=O)c2cccc(NC(=O)c3ccco3)c2)c1 do in these assays?
RE007 growth inh: 10.0%; StopGo reporter: 15.4%; Cruzain Triton: -3.1%; Cruzain inh noDet: inconclusive; Lassa entry inh: 9.3%; Marburg entry inh: -2.5%[46.1 µM]; NS1 function inh: -20.7%; SARS PLpro yeast: -0.9%

How did COC(=O)c1ccc(COc2ccc(C#N)cc2)o1 do in these assays?
RE007 growth inh: 3.8%; StopGo reporter: 20.6%; Lassa entry inh: inconclusive; Marburg entry inh: -2.2%; NS1 function inh: -11.7%; SARS PLpro yeast: -8.0%

Results for COc1ccccc1C(=O)NCC(=O)OC(C)C(=O)N1CCOCC1 (stereo not given) ?
RE007 growth inh: 0.2%; StopGo reporter: -4.7%; Lassa entry inh: -3.4%; Marburg entry inh: 2.1%; SARS PLpro yeast: -2.0%

How did COC(=O)C1CCCCN1C(=O)c1ccc(OC2CCN(C(C)=O)CC2)c(OC)c1 (stereo not given) do in these assays?
RE007 growth inh: -1.7%; StopGo reporter: -6.8%; Lassa entry inh: 11.2%; Marburg entry inh: 7.2%; NS1 function inh: 4.9%; SARS PLpro yeast: -1.7%

Results for COc1ccc(C(C)=O)cc1CSc1nc(Nc2ccc(F)c(F)c2)c2ccccc2n1 ?
StopGo reporter: inconclusive; Cruzain Triton: -4.9%; Cruzain inh noDet: 23.1%; Lassa entry inh: -27.1%[46.1 µM]

Results for Cc1cc(S(=O)(=O)N(Cc2ccc(C(C)C)cc2)CC2CCCO2)ccc1-n1cnnn1 (stereo not given) ?
RE007 growth inh: 14.9%; Cruzain Triton: -8.1%; Cruzain inh noDet: inconclusive; Lassa entry inh: inconclusive; Marburg entry inh: inconclusive; NS1 function inh: 10.1%; SARS PLpro yeast: -13.2%

How did NC(=O)c1c(NC(=O)C(=O)NCCCN2CCOCC2)sc2c1CCCC2 do in these assays?
RE007 growth inh: -13.8%; StopGo reporter: -10.7%; NS1 function inh: -1.4%; SARS PLpro yeast: 2.0%

Results for Cc1cc(OC(C)C(=O)NCCCN2CCCC2=O)c2c(C)c(C)c(=O)oc2c1 (stereo not given) ?
RE007 growth inh: 2.0%; StopGo reporter: -0.7%; NS1 function inh: -0.4%; SARS PLpro yeast: inconclusive

Results for CC(C)c1nnc2c(N(C)S(=O)(=O)c3ccccc3)nc3ccccc3n12 ?
RE007 growth inh: 5.5%; StopGo reporter: -13.6%; NS1 function inh: -3.5%; SARS PLpro yeast: 0.0%

What do the screens show for `COc1ccc(-c2cc(C(=O)N/N=C(\C)c3cccnc3)c3ccccc3n2)c(OC)c1`?
RE007 growth inh: 8.2%; StopGo reporter: -10.2%; Lassa entry inh: -20.4%; Marburg entry inh: -12.4%; NS1 function inh: -10.4%; SARS PLpro yeast: 1.7%

How did CCc1ccc(NC(=O)C(=O)NCCc2csc(-c3cccc(F)c3)n2)cc1 do in these assays?
StopGo reporter: -21.2%; Cruzain Triton: -1.0%; Cruzain inh noDet: 2.9%; Lassa entry inh: 15.5%[46.1 µM]

What do the screens show for `CC(=O)Nc1ccc(S(=O)(=O)CCC#N)cc1`?
RE007 growth inh: 13.6%; StopGo reporter: 9.6%; Cruzain Triton: -1.6%; Cruzain inh noDet: 10.2%; Lassa entry inh: 15.3%; Marburg entry inh: inconclusive; NS1 function inh: 8.1%; SARS PLpro yeast: 8.1%

How did CN1CCN(S(=O)(=O)c2ccc(Cl)s2)CC1 do in these assays?
RE007 growth inh: 0.6%; StopGo reporter: -6.3%; Lassa entry inh: -2.7%[46.1 µM]; Marburg entry inh: inconclusive; NS1 function inh: 15.2%
